# Screens as filed in PubChem BioAssay.
# Rango dissoc inh: qHTS Assay for Inhibitors of RanGTP induced Rango (Ran-regulated importin-beta cargo) - Importin beta complex dissociation; Potency, µM (doses to about 46.1 µM), without a hit: at the top dose activity change, negative = inhibition; 340,000 compounds, 0.071% hits; Snurportin-1 (Homo sapiens) + GTP-binding nuclear protein Ran (Homo sapiens) + Importin …; AID 540253, 2011; Biochemical FRET Rango-importin beta, RanGTP-induced dissociation; active means falling FRET ratio curve, often poorly fitted, with flat reads before Ran was added; inconclusive means other falling curves, or compound fluorescence or quenching; inactive means flat or rising ratio curve;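 note: potency is the fitted concentration of half-maximal effect; % of control where 0% means no effect; nearly all actives have a fitted effect of over 45% in size; -100% = wells without RanGTP and RCC1; the record marks most hits as doubtful in a second field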
#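 Rango/importin beta premix (0.1/0.25 uM final), PBS + 1 mM DTT + 0.02% Tween-20 + 0.1% BSA; cpd 5 min RT; FRET pre-read; + RanGTP-RCC1 (0.6 uM Ran, 2 mM GTP, 0.2 uM RCC1); 45 min RT; FRET post-read, ex 430, em 486/530 nm.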
# miR-21 reporter: qHTS Assay for Modulators of miRNAs and/orActivators of miR-21; 340,000 tested, under 10 active; Potency, µM (doses to about 38.3 µM), for the others: at the top dose reporter change, positive = more light; HeLa miR-21 FLuc reporter, luciferase, 48 h; active = well fitted rising curve with a large enough effect; inconclusive = small, poorly fitted or top-dose-only effect; inactive = no such curve, though single readings can be large or run the other way;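 note: % of control where 0% means no effect; miR-21 action dims this reporter so a rising signal means less miR-21 action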
#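 HeLa cells endogenously expressing miR-21, stably carrying CMV-driven firefly luciferase with a downstream miR-21 binding site, 2000 cells/well. Titrations up to approximately 40 uM, 48 hours; luciferase luminescence read.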
# Rango complex inh: qHTS Assay for Inhibitors of Rango (Ran-regulated importin-beta cargo) - Importin beta complex formation; 340,000 compounds, 0.031% hits; Rango CFP/YFP FRET sensor + importin beta, 45 min; Potency, µM (titrated, usually from 92.2 µM), for the others: at the highest dose inhibition of complex formation; Importin subunit beta-1 (Homo sapiens), Q14974; AID 540263, 2011; active = rising FRET ratio curve, often small or poorly fitted; inconclusive = mostly compound fluorescence or quenching in the first reads; inactive = flat curves in all reads;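 note: potency is the fitted concentration of half-maximal effect; 0% = DMSO wells and 100% = buffer wells lacking importin beta; nearly all actives have a fitted effect of over 15% in size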
#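 Inhibition scored from the CFP 486 nm/YFP 530 nm FRET ratio 45 min after adding 0.125 microM importin beta to 50 nM Rango biosensor preincubated 5 min with compound (room temperature, PBS with DTT, Tween-20, BSA). No-importin wells as positive control.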
# GLA inh pH 4.5: qHTS Assay for Inhibitors of Human alpha-Galactosidase at pH 4.5. AID 1467, 2008. 230,000 tested, under 10 active. Alpha-galactosidase A (Homo sapiens), P06280. purified enzyme, 4-MU-alpha-Gal fluorescence, pH 4.5. activity change, negative = inhibition, % at 105 µM; inconclusive = small, poorly fitted or top-dose-only inhibition, or a rising curve; inactive = flat fitted curve, though single readings scatter; no compound was filed as active;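 note: 0% = full activity with enzyme and -100% = basal without enzyme; dose as in the result columns while the protocol names 77 µM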
# Target sequence (P06280 whole entry, looked up): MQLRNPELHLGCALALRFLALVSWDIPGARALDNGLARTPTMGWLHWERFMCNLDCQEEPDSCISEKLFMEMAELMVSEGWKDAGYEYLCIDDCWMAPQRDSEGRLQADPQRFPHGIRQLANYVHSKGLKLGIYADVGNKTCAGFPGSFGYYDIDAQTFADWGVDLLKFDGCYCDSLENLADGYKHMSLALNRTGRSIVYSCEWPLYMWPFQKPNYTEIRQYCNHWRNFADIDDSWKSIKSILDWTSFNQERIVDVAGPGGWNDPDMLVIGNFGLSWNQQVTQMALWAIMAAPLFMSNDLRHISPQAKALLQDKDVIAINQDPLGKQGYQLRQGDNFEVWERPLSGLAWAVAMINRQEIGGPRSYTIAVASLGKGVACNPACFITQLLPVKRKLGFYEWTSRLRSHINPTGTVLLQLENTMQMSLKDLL
# An asterisk follows results filed as active; ? = inconclusive; nt = no result given; & = joins results of further samples. These rows are one share of the data. The share of hits here may be higher or lower than overall.
SMILES,Rango dissoc inh,miR-21 reporter,Rango complex inh,GLA inh pH 4.5
CC(C)c1nc(SCC(=O)Nc2ccc([N+](=O)[O-])cc2Br)n[nH]1,-1%,6%,2.5%,3
O=C(COC(=O)CC1CC2CCC1C2)Nc1ccc(F)cc1 (stereo not drawn),0%,-2%,0.2%,-4
NC(=O)N/N=C/c1sc(=O)n(-c2ccccc2)c1Cl,-22%,-12%,?,0
COc1ccc(CCN(C)C(=O)C2CCN(C(=O)Nc3ccccc3)CC2)cc1OC,6%,nt,1.6%,nt
CC(C)OCCCNC(=O)C1CCN(S(=O)(=O)N2CCCCC2)CC1,-9%,-3%,?,-1
CC(=O)c1ccc(NC(=O)C(C)Sc2nnnn2C)cc1 (stereo not drawn),-3%,-8%,2.1%,2
O=[N+]([O-])c1ccc(OCC2CC(c3ccccc3)=NO2)cc1 (stereo not drawn),1%,-6%,-0.2%,-1
CC(C)c1ccc(OCC(=O)Nc2c3c(nn2C(C)(C)C)CS(=O)(=O)C3)cc1,11%,nt,1.4%,nt
COc1ccc(-n2c(Cc3cccn3C)nnc2SCC(=O)Nc2ccccc2)cc1,15%,-4%,-1.7%,5
O=C(COC(=O)c1c2c(nc3ccccc13)/C(=C\c1cccs1)CCC2)Nc1ccccc1,?,27%,?,4
COc1ccc(S(=O)(=O)N2CCC(C(=O)Oc3c(OC)cccc3OC)CC2)cc1OC,2%,-1%,3.2%,nt
O=C(c1ccc(C(F)(F)F)cc1)N1CCN(S(=O)(=O)c2ccc3c(c2)OCCCO3)CC1,-1%,-2%,0.8%,nt
O=S(=O)(c1cccc(Cl)c1)N1CN(CC2CCCO2)c2nc3ccccc3nc21 (stereo not drawn),-3%,-6%,1.0%,nt
C=CCC1c2cccc(C(=O)O)c2C(=O)N1c1ccc(Cl)cc1 (stereo not drawn),-3%,-3%,-1.5%,8
CC(C)C[C@H](NC(=O)N1CCn2c1nc1ccccc12)C(=O)NCc1ccc2c(c1)OCO2,-13%,0%,6.6%,nt
CC(C)NC(=O)c1cc2cc(Br)ccc2oc1=O,-6%,-17%,3.3%,5
Cc1cc[n+](C(C)C(=O)c2ccc(Cl)cc2)cc1 (stereo not drawn),15%,1%,6.9%,nt
Nc1ccc(N2CCN(c3ccc(F)cc3)CC2)cc1,-16%,0%,-2.0%,2
O=C(CSc1nnc(Cn2nnc(-c3ccccc3)n2)n1-c1ccccc1)Nc1ccc(F)cc1,1%,-5%,-0.1%,7
COc1ccccc1CNS(=O)(=O)c1c(C(=O)N2CCCCCC2)c(C)n(C)c1C,-9%,-8%,0.0%,nt
CCCC(=O)Nc1sc2c(c1C(=O)OC)C(C(=O)OC)CC2 (stereo not drawn),-16%,0%,-0.2%,0
Cc1c(C(=O)Nc2cc(F)cc(F)c2)cnn1-c1ccccc1,-10%,-23%,0.6%,nt
O=C(O)C1CCCN1c1ncnc2ccccc12 (stereo not drawn),-4%,-1%,-4.3%,-16
Cc1ccccc1-n1c(Cn2c(=O)sc3ccccc32)nnc1SCC(N)=O,6%,-4%,0.2%,4
COc1ccc2o/c(=N/NC(=S)Nc3ccccc3)c(C(N)=O)cc2c1,nt,-7%,nt,-13
Cc1ccc(C(=O)/C=C/Nc2ccccc2C(N)=O)cc1,?,-2%,?,-10
COc1cccc(/C=N/Nc2ccnc(=O)[nH]2)c1O,5%,11%,1.1%,nt
Cc1ccc(S(=O)(=O)N(C)c2ccc(C(=O)Nc3c(C)n(C)n(-c4ccccc4)c3=O)cc2)cc1,12%,0%,-1.2%,-5
CC1CCCCC1NCC#CCOc1ccc(Cl)cc1 (stereo not drawn),-5%,3%,0.5%,-5
Cc1nc(Nc2cccc(C(F)(F)F)c2)nc2c1C(=O)CC(C)C2 (stereo not drawn),-14%,-5%,-0.1%,7
O=C(Nc1ccc(F)cc1)/C(=C1/CCCCCN1)[N+](=O)[O-],-2%,-15%,-0.1%,-6
Cc1nn(-c2ccc(F)cc2)c(C)c1NS(=O)(=O)c1ccc2ccccc2c1,17%,14%,0.1%,8
CCc1nnc(NC(=O)c2c(OC)cccc2OC)s1,-10%,-6%,3.7%,4
CCOC(=O)c1cccc2c1-c1ccccc1/C2=N/O,10%,25%,2.2%,-2
COc1ccc(C2=NN(Cc3ccccc3)C3C(=O)NC(=O)C23)cc1 (stereo not drawn),3%,-23%,-1.5%,-6
CCOc1cc(N2CCOCC2)c(OCC)cc1NC(=O)COc1cccc2cccnc12,2%,?,-1.8%,-15
COCCCNC(=O)Nc1ccc(Br)cc1Cl,-9%,-30%,-2.1%,-4
Nc1ccc(C(=O)Nc2ccc(Nc3ccncc3)cc2)cc1,-14%,-6%,?,7
CC(=O)NC(Cc1c[nH]c2ccccc12)C(=O)NCc1ccc2c(c1)OCO2 (stereo not drawn),-17%,-5%,3.9%,-1
O=C1CCCN1CC(O)CS(=O)(=O)Cc1ccc(Cl)c(Cl)c1 (stereo not drawn),8%,0%,1.5%,nt
COc1ccccc1CN=C1NC(=O)C(CC(=O)Nc2ccc(OC)c(OC)c2)S1 (stereo not drawn),5%,-8%,-3.3%,4
COc1cc(CNCCCN2CCOCC2)cc(Br)c1OCc1ccc(Cl)cc1,14%,?,7.3%,3
O=C1CCC(N2C(=O)c3ccccc3C2=O)C(=O)N1 (stereo not drawn),0%,1%,1.8%,-14&-3&1&-2
COc1cccc(CN2CCN(Cc3cccc(Br)c3)CC2)c1OC,-4%,-6%,2.0%,nt
Cn1c(=O)c(C(=O)COC(=O)c2cc(C(F)(F)F)nc3ccccc23)c(N)n(Cc2ccccc2)c1=O,nt,1%,nt,-5&0

# Entries from the list above containing a thiophene ring, fused or not, in the order listed:
SMILES,Rango dissoc inh,miR-21 reporter,Rango complex inh,GLA inh pH 4.5
O=C(COC(=O)c1c2c(nc3ccccc13)/C(=C\c1cccs1)CCC2)Nc1ccccc1,?,27%,?,4
CCCC(=O)Nc1sc2c(c1C(=O)OC)C(C(=O)OC)CC2 (stereo not drawn),-16%,0%,-0.2%,0

# The listing continues.
SMILES,Rango dissoc inh,miR-21 reporter,Rango complex inh,GLA inh pH 4.5
O=C(CCl)Nc1ccc2c(c1)OCO2,-18%,?,0.2%,1
Cc1cc(C(=O)NNC(=O)c2cccc(S(=O)(=O)N3CCOCC3)c2)c2ccccc2n1,10%,-3%,-0.1%,-17
CCOc1ccc2[nH]c3nc(SCC(=O)OC(C)C)nnc3c2c1,1%,-5%,-5.1%,nt
COc1ccc(Oc2coc3cc(OC(=O)/C=C/c4ccccc4)ccc3c2=O)cc1,-15%,-6%,0.5%,1
CC1(C)SCC(C(=O)O)N1C=O (stereo not drawn),2%,-1%,-2.0%,-8
Cc1[nH]c(=O)[nH]c(=O)c1Cc1cccc2ccccc12,30%,-13%,1.9%,-3
CC(=O)NCC(=O)NC1(C(=O)NC2CCCC2)CCCCC1,14%,-4%,5.1%,-25
O=C(C1CC1)N1CCCN(C(=O)C2CC2)CC1,1%,-3%,-0.2%,15
COCC(C)NC(C(=O)Nc1ccc(C)c(Cl)c1)c1ccccc1 (stereo not drawn),-22%,-13%,?,-5
Cc1ccc(N2C(N)=C(C#N)C(c3cccs3)C3=C2CC(C)(C)CC3=O)cc1 (stereo not drawn),-16%,7%,-0.2%,-16
CC(=O)Nc1nnc(S(=O)(=O)N2CCN(c3ccc([N+](=O)[O-])cc3Cl)CC2)s1,2%,-2%,-1.0%,nt
CCc1cccc(CC)c1NC(=O)COC(=O)/C(C#N)=C/c1ccc(OC)cc1,-10%,-2%,-1.5%,-9
COc1cccc(CNC(=O)C(=O)NCC(c2ccco2)N2CCOCC2)c1 (stereo not drawn),18%,-1%,5.8%,-1
Nc1ncnc(NCc2ccc(F)cc2)c1[N+](=O)[O-],21%,4%,2.0%,6
CCOc1ccc(Nc2ccc(N)c(S(=O)(=O)O)c2)cc1,-25%,nt,2.7%,nt

# For convenience, some entries already given:
SMILES,Rango dissoc inh,miR-21 reporter,Rango complex inh,GLA inh pH 4.5
Cc1ccc(N2C(N)=C(C#N)C(c3cccs3)C3=C2CC(C)(C)CC3=O)cc1 (stereo not drawn),-16%,7%,-0.2%,-16
CC(=O)Nc1nnc(S(=O)(=O)N2CCN(c3ccc([N+](=O)[O-])cc3Cl)CC2)s1,2%,-2%,-1.0%,nt
CCc1cccc(CC)c1NC(=O)COC(=O)/C(C#N)=C/c1ccc(OC)cc1,-10%,-2%,-1.5%,-9
COc1cccc(CNC(=O)C(=O)NCC(c2ccco2)N2CCOCC2)c1 (stereo not drawn),18%,-1%,5.8%,-1
Nc1ncnc(NCc2ccc(F)cc2)c1[N+](=O)[O-],21%,4%,2.0%,6
CCOc1ccc(Nc2ccc(N)c(S(=O)(=O)O)c2)cc1,-25%,nt,2.7%,nt

# Only Rango dissoc inh (2 entries from above):
compound,Rango dissoc inh
COc1ccc(Oc2coc3cc(OC(=O)/C=C/c4ccccc4)ccc3c2=O)cc1,-15%
CC1(C)SCC(C(=O)O)N1C=O (stereo not drawn),2%

# Later entries
SMILES,Rango dissoc inh,miR-21 reporter,Rango complex inh,GLA inh pH 4.5
CSc1cccc(NC(N)=O)c1,7%,0%,-1.6%,-1
Cc1cc(=O)oc2cc(OCC(O)CN3CCN(c4ccc(F)cc4)CC3)ccc12 (stereo not drawn),-4%,0%,-5.0%,4
O=C([C@@H]1CCCN1C(=O)c1cccs1)N1CCN(S(=O)(=O)c2ccccc2F)CC1,15%,nt,-3.5%,nt
Cc1cc(Cl)ccc1Oc1ccc(C(N)=O)cc1[N+](=O)[O-],1%,-2%,4.4%,-14
Cc1ccc(NC(=O)CN2CCN(c3ccccn3)CC2)c(Cl)c1,-4%,-34%,-1.1%,-10
C=Cc1ccc(CN2CCCN(Cc3ccc(F)cc3)S2(=O)=O)cc1,27%,-4%,5.0%,nt
COc1ccc(OC)c(-n2c(O)cnc2Nc2nc(C)cc(C)n2)c1,6%,-4%,-0.6%,-2
CCOc1ccc(NC(=O)OCCN2CCN(CCc3ccccc3)C(C)C2)cc1 (stereo not drawn),?,nt,?,nt
CCC(=NCc1ccccc1)c1c(C(F)(F)F)[nH]n(-c2nc3ccccc3s2)c1=O,6%,-40%,1.6%,3
COc1cc(/C=C(\C#N)c2ccccn2)cc(OC)c1O,?,21%,?,-12
CCc1ccc(OCc2nnc(SCCN3CCOCC3)n2C)cc1,6%,0%,-0.9%,-12
COc1ccc(/C=C(/NC(=O)c2cccs2)C(=O)NCc2ccco2)cc1OC,23%,-3%,-0.3%,1
Cc1nc(SCC(=O)Nc2ccc3c(c2)OCCO3)c2oc3ccccc3c2n1,-5%,-3%,-0.6%,4
O=C(O)c1cc(N/N=C/c2ccc3c(c2)OCCO3)ccc1Cl,-16%,-75%,3.2%,3
C=C(C)COc1ccc(-c2ncncc2Oc2ccc(OC)cc2)c(O)c1,1%,3%,0.6%,-4
O=S(=O)(/N=C(\c1ccccc1F)N1CCCCC1)c1ccccc1,-16%,-3%,-1.5%,1
Cc1ccc2c(c1)C1CN(C)CCC1N2C(=S)NC(=O)c1ccc(Cl)cc1Cl (stereo not drawn),-1%,0%,6.6%,4
O=C(NC1CCCCC1)N1CCN(Cc2ccco2)CC1,19%,-14%,-1.7%,-2
CN1CCN2c3ncccc3Cc3ccccc3C2C1 (stereo not drawn),-17%,nt,-4.7%,-2
COc1ccccc1C(=O)NNC(=O)c1ccccc1,18%,-15%,-0.7%,nt
CC(OC(=O)C1CCN(S(=O)(=O)c2ccc(Cl)cc2)CC1)C(=O)N1CCc2ccccc21 (stereo not drawn),10%,-1%,-0.2%,-5
